# LANA-nucl inh: LANA-nucleosome interaction inhibition; FITC-LANA1-23 / chicken nucleosome fluorescence polarization; stronger effect = lower value; z-score (no concentration beside the values); hit rate 0.3% among 51,000; AID 720717;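 active means both repeat wells score below -2 in polarization z-score versus plate sample wells, excluding overly bright wells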;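 further: 100 nL library stock added to about 30 µL; numbers are from one replicate; some results filed as inactive read as strong as hits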
#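 Assay system: purified chicken nucleosomes with FITC-labelled LANA N-terminal peptide (1-23) / Probe or stimulus: 50 nM FITC-LANA1-23 probe / Compound dosing: pin-transferred compound, 100 nL / Times: compound with peptide–nucleosome mix 10–45 min at room temperature / Technique: fluorescence polarization, 480 nm excitation, 535 nm parallel and perpendicular emission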
# BasE inh: BasE siderophore biosynthesis inhibition. purified BasE, fluorescence polarization binding displacement. inhibition, % (concentration not given with the values). hit rate 0.1% among 84,000. AID 485350;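 active means both replicates above 25% with normal brightness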;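 further: 0% = negative plate control signal and 100% = positive plate control signal; stock transfer was 100 nL into about 30 µL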
# * hit, by the source's call; · = no result given; & = joins results of further samples.
# Second line of a record: LANA-nucl inh | BasE inh
C=CCNC(=O)C1CCCN(S(=O)(=O)c2cc(Cl)ccc2OC)C1 (stereo unspecified)
    0.074 | -1.2
Cc1cc(=O)[nH]n1C
    · | 0.9
CCN1CCN(c2nnc(-c3cccs3)c3ccccc23)CC1
    -1.1 | -1.1
Nn1c(Nc2ccc(Cl)cc2)nncc1=O
    2 | -2.5
CCOC(=O)c1cnn2c1nc(N1CCOCC1)c1ccccc12
    0.66 | 0.5
NC(=O)CN1C(=O)Cc2ccccc21
    -0.13 | 1.4
O=C(NCC1CCCC(CNC(=O)N2CCc3ccccc32)C1)N1CCc2ccccc21 (stereo unspecified)
    · | 1.7
Cc1ccc(C(C)C)c(OCC(=O)NC2CCN(C)CC2)c1
    0.28 | 3.2
CCc1ccc(S(=O)(=O)Nc2ccc3oc(=O)sc3c2)cc1
    · | 0.8
CC(=O)Nc1ccc(N=C2C(=O)N(CCC(C)C)c3ccccc32)cc1
    · | 1.7
CC1=C(C#N)C(c2sc3ccccc3c2Cl)C(C#N)=C(C)N1
    -0.83 | ·
COC(=O)c1ccc(C)c(NC(=O)c2ccc3c(c2)CC(C)N3S(C)(=O)=O)c1 (stereo unspecified)
    · | 0.1
CC(=O)Nc1ccc(SCC(=O)N2CCCCC2C)cc1 (stereo unspecified)
    · | -1.1
Cc1ccc(NC(=O)C2CC(=O)NC3=C2C(=O)CC(C)(C)C3)cc1C (stereo unspecified)
    -0.75 | 3.6
O=C1CN(C(=S)Nc2ccc(F)cc2)CCN1
    · | 2.0
CCc1ccc(NC(=S)NN(C)C)cc1
    -0.53 | 1.2
COc1ccc(-c2nc3ccccn3c2NCc2ccc3c(c2)OCO3)cc1
    -1 | 3.0
CCOC(=O)/C(C#N)=C/Nc1nc(C)cs1
    · | -18
COc1ccccc1OCC(O)CNCc1ccc2c(c1)OCO2 (stereo unspecified)
    · | 0.3
Cc1cc2ccccc2n1-c1ccc(C(=O)N2CCC(C(=O)N3CCN(C)CC3)CC2)s1
    -0.015 | -1.3
CCCN(CC(=O)Nc1cc(C)on1)CC(=O)Nc1ccc(F)c(F)c1F
    · | 1.2
CSc1cccc(NC(=S)Nc2cc3c(c(N)c2C)C(C)(C)CC3(C)C)c1
    · | 1.3
CC(C(=O)Nc1ccc(Cl)cc1Cl)N1CCCN(c2ccc(C(F)(F)F)cn2)CC1 (stereo unspecified)
    · | -1.2
O=C(O)c1ccc(-c2cccc(C(F)(F)F)c2)o1
    · | 1.1
COCC(C)n1c(SCc2ccccc2C#N)nc2ccccc2c1=O (stereo unspecified)
    · | -2.4
CCOc1ccc2c(c1)sc(=NC(=O)c1ccc(S(=O)(=O)N3CCc4ccccc43)cc1)n2C
    · | 1.8
COc1cccc(C(=O)Nc2ccc3c(c2)COC3=O)c1
    -0.48 | -1.4
CN(C)CCN(Cc1cccs1)c1ccccn1
    -0.15&0.29&0.48 | 0.0&-2.1
CC(=O)N1CCC(N(C(=O)Nc2cccc(C)c2)C2CCCC2)CC1
    -0.34 | 0.3
O=C(OCC(=O)N1CCCCC1)c1ccc(NS(=O)(=O)c2ccc3c(c2)OCCO3)cc1
    · | -0.1
Nc1ccc(S(=O)(=O)Nc2cnc3ccccc3n2)cc1
    -0.18&0.38 | 3.7
CS(=O)(=O)N1CCc2cc(C(=O)CSc3nnc4ccccn34)ccc21
    · | 4.2
CCCSc1nnc(NC(=O)c2nn(-c3cccc(C)c3)ccc2=O)s1
    0.28 | 0.8
Cc1ccccc1S(=O)(=O)Nc1nc2ccccc2nc1Nc1ccc(S(=O)(=O)N2CCOCC2)cc1
    · | 6.7
CNC(=S)NCCN1CCOCC1
    -0.15 | -0.4
Ic1ccc2nc(-c3ccccc3)cn2c1
    0.97 | ·
COc1ccc2cc(C(C)C(=O)N3CCC(C(N)=O)CC3)ccc2c1 (stereo unspecified)
    · | -1.0
c1ccc2c(c1)CCN(c1ncnc3sccc13)C2
    · | -0.9
O=C(Cn1cnc2c(cnn2CCO)c1=O)N1CCOCC1
    -0.9 | -0.2
Cc1ccc(S(=O)(=O)/N=C/c2ccco2)cc1
    -0.053 | 4.3
O=C(CN1C(=O)c2cccnc2Oc2ccc(Cl)cc21)N1CCCCC1
    -0.16 | 2.3
COc1ccc(NC(=O)CSc2nc(NS(=O)(=O)c3ccccc3)cc(=O)[nH]2)cc1
    -0.22 | 2.2
Cn1c(SCCC(=O)Nc2ccccc2)nnc1-c1cc2ccccc2o1
    0.17 | 4.8
CCCCn1c(=S)[nH]c2cc(Cl)ccc2c1=O
    · | -3.5
Ic1cccc2c1N1CCN2CC1
    -0.082 | 1.2
O=C1Nc2ccccc2C(=O)N2CCCC12 (stereo unspecified)
    -0.78 | 0.7
Cc1oc(-c2ccc(C(=O)NCc3ccccc3)cc2)nc1CS(=O)c1ccccc1 (stereo unspecified)
    -1.5 | -1.1
COc1ccc(Cn2c(=O)[nH]c3ncccc3c2=O)cc1
    -0.92 | 0.6
O=C1NCCN1CCNS(=O)(=O)c1cc(C(F)(F)F)cc(C(F)(F)F)c1
    · | 0.9
COc1ccc(OCC2CCNCC2)cc1
    -0.22 | -1.3
CCOC(=O)c1c(NC=O)sc(C)c1C
    · | 2.6
Cc1cc(I)ccc1-n1[nH]c(C(F)(F)F)cc1=O
    · | 0.5
CCc1ccc2c(CSc3nccn3C)cc(=O)oc2c1
    · | 0.9
CNCC(O)c1ccc(OC(=O)C(C)(C)C)c(OC(=O)C(C)(C)C)c1 (stereo unspecified)
    0.098 | -1.4
Cc1nc(SCC(=O)N2CCNC2=O)n(C2CCCCC2)c1C
    · | 0.2
CC(C)N1CC(C(=O)Nc2ccccc2)CC1=O (stereo unspecified)
    0.49 | -1.4
Cn1cccc1C(=O)OCc1ccc(C(C)(C)C)cc1
    · | 0.8
CCCNC(=O)Nc1cccc(CC)c1
    -0.82 | 1.5
COc1ccc(CNc2ncn[nH]2)cc1OC
    · | 0.1
CC(C)NC(=O)Nc1ccccc1C(=O)O
    · | -1.1

# Structures listed so far that contain an NH in an aromatic ring:
# Second line of a record: LANA-nucl inh | BasE inh
Cc1cc(=O)[nH]n1C
    · | 0.9
COc1ccc(NC(=O)CSc2nc(NS(=O)(=O)c3ccccc3)cc(=O)[nH]2)cc1
    -0.22 | 2.2
CCCCn1c(=S)[nH]c2cc(Cl)ccc2c1=O
    · | -3.5
COc1ccc(Cn2c(=O)[nH]c3ncccc3c2=O)cc1
    -0.92 | 0.6
Cc1cc(I)ccc1-n1[nH]c(C(F)(F)F)cc1=O
    · | 0.5
COc1ccc(CNc2ncn[nH]2)cc1OC
    · | 0.1

# Some of these compounds in order of their number in LANA-nucl inh, descending.
Structure	LANA-nucl inh
Ic1ccc2nc(-c3ccccc3)cn2c1	0.97
Ic1cccc2c1N1CCN2CC1	-0.082
O=C(CN1C(=O)c2cccnc2Oc2ccc(Cl)cc21)N1CCCCC1	-0.16
COc1ccc(OCC2CCNCC2)cc1	-0.22

# (further entries)
# Second line of a record: LANA-nucl inh | BasE inh
CNC(=S)N1CCN(c2ccccc2OC)CC1
    · | 0.1
CCC(=O)OCC(=O)[C@@]1(OC(=O)CC)[C@@H](C)C[C@H]2[C@@H]3CCC4=CC(=O)C=C[C@]4(C)C3(F)[C@@H](O)C[C@@]21C (stereo partly specified)
    0.49 | ·
CN(C)CCCNc1nc2ccccc2nc1NS(=O)(=O)c1ccc(Cl)cc1
    · | 1.9
Cc1ccc2nc(SCN3C(=O)c4ccccc4C3=O)[nH]c2c1
    · | -1.1
Cc1nc2c(c(C)nn2C(C)(C)C)c(C)c1CCC(=O)N1CCCCCC1
    0.19 | -0.4
O=C(CN1CCC(c2nc3ccccc3s2)CC1)N(C1CCCCC1)C1CCS(=O)(=O)C1 (stereo unspecified)
    · | -1.5
Cn1c(SCc2cc(=O)[nH]c3ccccc23)nc2ccccc2c1=O
    0.97 | 1.6
COc1ccc(S(=O)(=O)N(CC(=O)NC2CC2)C2CCCCC2)cc1Cl
    -0.27 | -1.1
CS(=O)(=O)N(CC(=O)Nc1cccc(F)c1)c1cccc(F)c1
    -1.4 | 2.0
Cn1c(=O)c2c(-c3ccccc3Br)n(C(CO)(CO)CO)cc2n(C)c1=O
    0.86 | -1.8
Cc1ccc(Cc2c(C)[nH]c3[nH]n(-c4ccccc4)c(=O)c3c2=O)cc1
    -1.2 | 5.5
O=C(CCN1C(=O)C2C3C=CC(C3)C2C1=O)Nc1cccc2ccccc12 (stereo unspecified)
    -0.028 | 2.1
Cc1ccn(CCC(=O)Nc2nccs2)n1
    -0.32 | 1.8
CNS(=O)(=O)c1ccccc1C(=O)N/N=C/c1ccc(OC)c(OC)c1
    0.55 | -2.5
Cc1nccc2[nH]c(=O)c(C(=O)NCCc3ccc(Cl)cc3)cc12
    0.38 | -1.2
CNC[C@H](O)c1cccc(O)c1
    0.0005&0.75 | -1.9
O=C(COC(=O)c1ccncc1)NC12CC3CC(CC(C3)C1)C2
    · | -0.2
O=S(=O)(NCCN1CCOCC1)c1cccc(C(F)(F)F)c1
    -1 | 0.7
NNC(=O)c1cc(N)c(=O)[nH]n1
    -0.7 | 1.2
CCOc1ccc(NC(=O)CN(C)CC(=O)NC2CCCc3ccccc32)cc1OCC (stereo unspecified)
    · | 1.6
COCCn1c(=C(C#N)C#N)s/c(=C/c2ccc(C)s2)c1=O
    · | 16
CC1(C)Cc2ccccc2C(=NCC(=O)O)N1
    -1.3 | 1.4
COc1ccc(N2CCN(C(=O)CCS(=O)(=O)c3ccc4c(c3)NC(=O)CO4)CC2)cc1
    -1.2 | 2.2
CS(=O)(=O)c1nsc(S(C)(=O)=O)c1C#N
    -0.2 | 1.2
CCn1c(Cn2nc(C(=O)O)c3ccccc3c2=O)nc2cc(S(=O)(=O)N(C)C)ccc21
    · | 1.8
COc1cc2ncc(S(=O)(=O)c3ccccc3)c(N3CCN(c4ccccc4F)CC3)c2cc1OC
    2.5 | 0.7
C#CC(CC)(CC)NC(=O)COc1ccccc1Cl
    · | 1.7
COc1ccc(CCN(C)CC(=O)Nc2c(C)cc(C)cc2C)cc1OC
    0.2 | -1.6
CCOC(=O)c1sc(N)c(C#N)c1CSc1ncnc2sc3c(c12)CCC3
    · | -1.6
Cc1nc(-c2cccc(Cl)c2)cs1
    0.13 | -0.3
Cc1ccc2c(cnn2C(=O)CCC(=O)NCc2ccccc2)c1
    2.3 | -0.6
O=C(OC1(C(F)(F)F)C(=O)Nc2cc3c(cc21)OCCO3)c1ccc(S(=O)(=O)N2CCCCCC2)cc1 (stereo unspecified)
    · | 0.4
CN1CCN(c2ncnc3c2cnn3-c2ccccc2)CC1
    0.62 | 0.2
O=C(NCCc1ccccc1)c1cnn2cccnc12
    0.42 | 2.4
c1ccc(Cc2ccccc2-c2nnc(-c3cccnc3)o2)cc1
    · | 0.9
CN1C(=O)CS/C1=N/N=C/c1cn(-c2ccccc2)nc1-c1ccccc1
    -0.17 | 1.1
Cc1cc2c(cc1S(=O)(=O)N1CCOCC1)n(C)c(=O)c(=O)n2C
    -0.23 | 1.1
O=C(OCC(=O)N1CCCCC1)c1ccc(-c2nc3ccccc3s2)s1
    · | -0.5
COc1ccc(/C=C2\SC(=O)N(CCNC(=O)[C@@H]3CCCN3C(=O)OC(C)(C)C)C2=O)cc1
    · | 0.2
Cc1cc(/C=C2/NC(=O)N(Cc3ccccc3F)C2=O)c(C)n1C
    0.69 | 3.4
COc1ccc(-c2nc3c4cnn(-c5cccc(C)c5)c4ncn3n2)cc1
    · | 1.7
CCN(CC)C(=O)C1CCN(S(=O)(=O)c2ccc(C)cc2)CC1
    -1.2 | -0.6
NNc1nc(-c2ccccc2)cc(-c2ccc(Br)cc2)n1
    -0.4 | 1.9
c1ccc(CCN2CN(Cc3ccccc3)c3nc4ccccc4n3C2)cc1
    0.51 | 1.6
O=C(CSc1c(-c2ccccc2)c2cc(Cl)ccc2[nH]c1=O)N1CCN(C(=O)c2ccco2)CC1
    -0.82 | -3.4
CC(C)(C)n1ncc(C(=O)O)c1C(F)(F)F
    -0.58 | ·
CCC(=O)N(c1nnc(SC(C)C(=O)c2ccc(NS(C)(=O)=O)cc2)s1)C1CC1 (stereo unspecified)
    · | 1.8
COc1cc(=O)[nH]c(SCC(=O)Nc2ccc(Br)cn2)n1
    -1.6 | 0.1
COc1ccccc1-n1c(C)nc(=O)c(-c2ccccc2)c1C
    · | 3.1
Cn1c2c(c3ccccc31)C(C)(C)Cc1c-2cnn1-c1ccccc1
    · | -0.6
CCc1c(C(=O)OC)c2cc(NS(C)(=O)=O)ccc2n1S(C)(=O)=O
    0.45 | 1.4
C#C[C@]1(O)CCC2C3CCC4=CC(=O)CC[C@@H]4C3CC[C@@]21C (stereo partly specified)
    -0.25&0.61 | 1.1
CCCOc1ccc(-c2nc(N(CC)CC)c3ccccc3n2)cc1
    · | -2.2
COc1ccc(C)cc1-n1c(=O)c2ccccc2n2c(SCc3cc(=O)n4c(C)csc4n3)nnc12
    · | 1.1
CC1CCc2c(sc3ncnc(NCCOCCO)c23)C1 (stereo unspecified)
    -1.4 | -0.2
Cc1ccc(/C=C2\CCC/C(=C\c3ccc(C)s3)C2=O)s1
    · | 0.4
Cc1cc(C)n(CC(=O)NC23CC4CC(CC(C4)C2)C3)c(=O)c1C#N
    0.19 | -1.4
O=C1CCCCC1Sc1nnc(C2CC2)n1Cc1ccccc1 (stereo unspecified)
    · | -1.2
O=C(CCc1nnc2ccc(NCc3ccccc3)nn12)NCc1cccnc1
    -1.6 | 0.9
Cc1ccc(S(=O)(=O)N2CCCC2)c(C)c1
    -0.47 | -0.6
CCCn1c(=O)c(/C(N)=N/O)nn(-c2ccccc2)c1=O
    · | -1.1

# Only part of the results is shown. The share of hits here may be higher or lower than overall.
